# NPYLR7 agonist: mosquito NPYLR7 agonism; AID 1259423; HEK293T NPYLR7/Galpha15, GCaMP6s calcium fluorescence; hit rate 0.15% among 270,000; activation, % at 10 µM; in the data active means activation above about 40%;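 further: 0% = vehicle and 100% = reference agonist at the receptor; some compounds past the cut are filed as inactive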
# NPYLR7 agonist max-min: recorded beside NPYLR7 agonist, whose call it bears; activation, %; measured here: Max-Min RFU normalised activation; some inactives read as strong as hits;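 span of the calcium signal over five minutes; 0% = vehicle and 100% = native peptide agonist; compound fluorescence can raise it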
# Active calls of the source: *. A portion of the library; rates above refer to the full screens.
Compound	NPYLR7 agonist	NPYLR7 agonist max-min
CSc1ccc(C(=O)Cn2nc(-c3ccc(F)cc3)oc2=O)cc1NC(C)=O	1	12
c1ccc(CN2CN(CC3CCCO3)c3nc4ccccc4n3C2)nc1 (stereo not drawn)	4	2
Cc1nc(C(=O)N(CC2CCN(C3Cc4ccccc4C3)CC2)CC2CCCO2)cs1 (stereo not drawn)	13	6
CC(C)Sc1nc(N2CCCC2)c2c(c1C#N)CC(C)(C)OC2	7	3
COCCn1c(C)c(C)n2c3c(=O)n(CC(=O)c4ccccc4)c(=O)n(C)c3nc12	0	3
COCCN(Cc1ccc(OC)c(OS(=O)(=O)c2ccc(OC)cc2)c1)C(=O)c1cccc(F)c1	2	17
Cc1ccccc1C1c2ccsc2CCN1C(=O)CN(C(=O)CCl)C1CCCCC1 (stereo not drawn)	-7	5
COc1ccc(-n2nc(-c3ccccc3)cc2C(=O)N2CCN(c3cccc(C(F)(F)F)c3)CC2)cc1	29	24
CN(Cc1nc2ccccc2s1)C(=O)c1cn(CC2CCCCC2)nn1	15	12
CCCCCCc1ccc(C(=O)N(CCC)CC(=O)N2CC(=O)N(c3ccc(F)cc3)C2)cc1	2	9
Fc1ccc(-c2[nH]ncc2/C=N\N2CCOCC2)cc1	3	3
CC(=O)c1nnn(-c2nc(N3CCCC3)nc(N3CCCC3)n2)c1C	1	-2
Cc1cc(C(=O)NCCc2ccccc2)nc2cc(-c3ccccc3)nn12	18	18
Cc1ccccc1C(=O)N[C@@H]1CCCCC1NC(=O)C1CCN(C(=O)c2cc(C(F)(F)F)cc(C(F)(F)F)c2)CC1 (stereo partly drawn)	0	8
CCC(=O)NCc1cc(Br)c(OC)c(OC)c1	-32	-31
N#Cc1ccc(COC2C[C@](OCc3ccccc3)(C(=O)NCCCn3ccnc3)C[C@@H](O)[C@H]2O)cc1 (stereo partly drawn)	6	12
CCCCC(=O)N(CCC)CC(=O)N(CCc1c[nH]c2ccccc12)Cc1ccccc1OC	23	25
COCc1cc(N2CCN(c3cccc(C(F)(F)F)c3)CC2)nc(SCc2ccc(C(=O)NCC3CCCO3)cc2)n1 (stereo not drawn)	13	12
CCCOc1ccc(-n2nnc(C(=O)Nc3nccs3)c2C)cc1	4	3
NC(=O)C(NCCc1cccc(F)c1)c1ccccc1 (stereo not drawn)	6	3
Cc1nc(N2CCCCCC2)c2c3c(sc2n1)CC(C)CC3 (stereo not drawn)	2	3
Cc1ccc(C(C)NC(=O)c2cn(CCN)nn2)c(C)c1 (stereo not drawn)	0	30
COc1cccc(C(CN2CCN(S(=O)(=O)c3ccc(Cl)s3)CC2)OCc2ccc(C#N)cc2)c1 (stereo not drawn)	26	13
CCOc1ccccc1N1CCN(C(=O)c2ccc([N+](=O)[O-])cc2)C(C)C1=O (stereo not drawn)	17	30
C#CCn1c(=NC(=O)c2ccccc2S(C)(=O)=O)sc2cc(F)ccc21	3	1
Cc1ccc(CNc2ccc([N+](=O)[O-])cc2S(=O)(=O)N2CCOCC2)cc1F	-2	-3
CCc1c(C(=O)NNc2oc(C(C)C)nc2C#N)cnn1C(C)(C)C	2	1
COc1ccc(-c2cccc(-c3ccc(NC(=O)COC(C)=O)cc3)n2)cc1	32	38
O=C(Nc1c[nH]ccc1=O)C1CC1c1ccccc1C(F)(F)F (stereo not drawn)	-3	-4
COc1ccc(C2C(C(=O)OC(C)C)=C(C)NC(C)=C2C(=O)OC(C)C)cc1OC	1	1
CNC(=O)c1c(NC(=O)c2ccco2)sc2c1-c1ccccc1C2	2	3
CC(=O)Nc1ccc(Cl)cc1C#N	9	8
CC1(Cc2c(Cl)cccc2Cl)C(=O)Nc2cc(-c3ccccc3Cl)ccc21 (stereo not drawn)	4	3
COc1ccc(-n2nnc3c(=O)n(Cc4ccccc4F)cnc32)cc1OC	-5	-9
COC(=O)C(=O)NCc1ccc(-c2ncc(-c3cc(OC)ccc3OC)[nH]2)cc1	0	2
O=[N+]([O-])c1ccccc1Sc1cccc2cccnc12	2	2
Cn1ncc(NC(c2ccc(Cl)cc2)C2CC2)c(Cl)c1=O (stereo not drawn)	-23	-25
CN(Cc1nnc(-c2ccccc2)o1)C(=O)c1cn(Cc2c(F)cccc2F)nn1	10	5
O=C(c1cc2ccccc2[nH]1)N1CCC(N2CCCC(C(=O)N3CCCC3)C2)CC1 (stereo not drawn)	21	14
Cc1ccc(-n2nc(C(C)(C)C)cc2NC(=O)CN(Cc2ccccc2)C(=O)Nc2ccc(C#N)cc2)cc1	0	10
O=c1[nH]c(=O)n(CC2CCCO2)c2nccc(-c3ccc4ccccc4c3)c12 (stereo not drawn)	2	-4
COC(=O)CN1CCN(C2CCN(C(C)=O)CC2)C(C)C1=O (stereo not drawn)	3	5
CC(C(=O)Nc1cccc(F)c1)N1CCN(Cc2cccnc2)CC1 (stereo not drawn)	2	2
CCCN(CC(=O)N(Cc1ccc2c(c1)OCO2)Cc1sccc1C)C(=O)c1ccc(Cl)cc1	-3	1
CN(C)C(=O)CN1c2cccc3cccc(c23)S1(=O)=O	29	33
O=c1cc(CSc2nnc3ccc(C(F)(F)F)cn23)nc(C2CC2)[nH]1	-1	0
O=C1CSC(c2cn(-c3ccccc3)nc2-c2ccccc2)N1CCCl (stereo not drawn)	2	1
CSC1CCC(N(C)CCS(=O)(=O)c2cc(Cl)ccc2Cl)C1 (stereo not drawn)	14	12
CCCCCn1c(NCCc2ccccc2)nc2c1c(=O)[nH]c(=O)n2C	5	7
COc1ccc(-c2nc3ccc(-c4ccccc4Cl)cn3c2CCC(=O)O)cc1	22	10

# Later entries:
Compound	NPYLR7 agonist	NPYLR7 agonist max-min
O=C(O)CCCCCNC1=C(n2nnc3ccccc32)C(=O)c2ccccc2C1=O	12	10
COc1cccc(CN2CCN(c3ccc(Cl)cc3)C(=O)C2C)c1 (stereo not drawn)	0	9
CSc1ncc(CNC2CCCCC2C)c(N2CCOCC2)n1 (stereo not drawn)	-6	-1
CC(C)C(=O)Nc1nc2c(s1)-c1cccc3cccc-2c13	8	6
CC(C)NC(=O)CSc1ncnc2c1nnn2C	1	6
CC(O)CNc1nc2ccccc2n1Cc1nnnn1C1CC1 (stereo not drawn)	4	0
O=C(C=CC1=NC2C=CC=CC2N1)c1c(-c2ccccc2)c2cc(Cl)ccc2[nH]c1=O (stereo not drawn)	-2	-5
CCOc1ccc(NC(=O)COC(=O)c2ccc(Cl)cc2O)cc1	-2	-1
CCOc1cc(Br)c(C=NN=C(N)c2nonc2N)cc1OCC	-23	-29
CCOc1cccc2cc(C(N)=O)c(=Nc3ccc(F)cc3)oc12	0	-2
COc1ccc(CN2C3CCC2CC(NC(=O)c2c(Cl)cc(Cl)cc2Cl)C3)c(OC)c1 (stereo not drawn)	15	0
O=C(CC1C(=O)NCCN1CCCc1ccccc1)NC1CCCC1 (stereo not drawn)	9	3
CO[C@H]1CN(C(=O)CCc2ccc3c(c2)OCO3)CC[C@H]1N	0	-2
CCOC(=O)c1nc2ccccc2nc1N1CCCN(C(=O)c2snnc2C)CC1	-15	-18
O=c1c(=Cc2c[nH]c3ccccc23)sc2nc3ccccc3n12	4	1
CCCc1c(C(=O)N(C)Cc2ccccc2)cnn1-c1cccc(F)c1	15	22
CCOC(=O)CN(C(=O)c1ccccc1)[C@@H]1C[C@@H]2CO[C@H](C(C)C)C[C@@H]2C1	20	17
Cc1ccc(S(=O)(=O)N(CCN2CCCCC2)Cc2csc(COc3ccccc3C(C)C)n2)cc1	-5	7
O=C(Nc1cccc(Cl)c1Cl)N1CCSC1c1cccc(Oc2ccccc2)c1 (stereo not drawn)	16	20
O=C(c1cccc2c1OCC2)N1CCC(N2CCCC2=O)CC1	6	3
CC(=O)c1cc(CN2CCC(C(=O)Nc3cccc(-c4cccc(F)c4)c3)CC2)cs1	10	1
C=CCN(CC=C)Cc1ccc(C(=O)OC)o1	6	1
O=C(Oc1ccc(Br)cc1Br)C1CC1	2	7
O=C(Nc1ccn(-c2ccccc2)n1)C1CCCC1	1	0
O=C(c1ccccc1)N1CCN(C(=O)c2ccc(F)cc2)CC1	9	7
Cc1cc(Br)ccc1NC(=O)CN(C)C(=O)c1ccc2c(c1)C(=O)N(C)C2=O	3	2
CON(C)C(=O)c1cccc(OC(CCN2CCCC2)c2ccc(C)o2)c1 (stereo not drawn)	0	-3
CC(C)(C)c1ncc2c(n1)CN(c1nccc(CCC(F)(F)F)n1)C2	24	12
O=C(c1csc(CSc2nnc(-c3ccccc3Cl)n2-c2ccccc2F)n1)N1CCN(C(c2ccccc2)c2ccccc2)CC1	35	30
C=CCOC(=O)C1=C(C)N=c2sc(=C3C(=O)N(C)c4ccccc43)c(=O)n2C1c1cccs1 (stereo not drawn)	-1	24
O=C(CSc1ccc(Cl)cc1)NN1CCOCC1	-1	-6
COC[C@H]1C[C@H]2C[C@@H](Oc3ccccn3)[C@H](N3CCN(c4ccccc4OC)CC3)[C@]2(O)CO1	4	14
COc1ccccc1CNC(=O)CSc1nc(=O)n(CC2CCCO2)c2c1CCC2 (stereo not drawn)	-6	-9
c1ccc(-n2nnnc2CSc2nnc(C3CC3)n2-c2ccccc2)cc1	-2	8
O=c1[nH]c(=O)n(Cc2ccccc2)c2nc(CCc3ccccc3)c(=O)n(CC3CCCO3)c12 (stereo not drawn)	7	16
O=c1ccc2ccc(O)cc2o1	-4	-8
CNC(=O)C(C1CCCC1)N1CCN(C(=O)/C=C/c2ccccc2)CC1 (stereo not drawn)	-8	-10
CCCNC(=O)N1CCC2(CC1)C(=O)NCCCN2C	7	4
CC(C)Cn1cncc1CNC(=O)c1cc(=O)c2ccccc2[nH]1	3	0
Cc1ccc(C)c(Cn2nc(-c3ccccc3C)ccc2=O)c1	7	2
CSc1nnc(-c2ccncc2)n1C	-15	-20
CCCCc1nc(Cn2c(=O)oc3cccnc32)no1	-2	-2
CCN(Cc1ccc(F)cc1)C(=O)c1cnc(N(C)C)nc1C	-6	-8
COc1ccc(CNCc2ccc(F)cc2)cc1OCc1nc(CO)cs1	29	35
CC(=O)Nc1ccc(SCCCC(=O)N2CCN(c3cccc(Cl)c3)CC2)nn1	-2	-3
Cc1ccccc1N1C(=O)/C(=C/c2ccc(Br)cc2)C=C1c1ccccc1	0	2
Cc1nnc(C2CCCN(C(=O)NC3CCCCC3)C2)s1 (stereo not drawn)	-5	-1
CCOP(=O)(CC(CP(=O)(OCC)OCC)P(=O)(OCC)OCC)OCC	-11	-15
CC(Cc1cc2c(c(C(N)=O)c1)N(CCCO)CC2)NCCOc1ccccc1OCC(F)(F)F (stereo not drawn)	-3	-11
CC1=NC2=C(C(=O)CCC2)C(c2cccc(F)c2)C1C#N (stereo not drawn)	5	4

# Three entries already listed, sorted by molar mass, high to low:
Compound	NPYLR7 agonist	NPYLR7 agonist max-min
Cc1ccccc1C1c2ccsc2CCN1C(=O)CN(C(=O)CCl)C1CCCCC1 (stereo not drawn)	-7	5
CC(C)(C)c1ncc2c(n1)CN(c1nccc(CCC(F)(F)F)n1)C2	24	12
CCCOc1ccc(-n2nnc(C(=O)Nc3nccs3)c2C)cc1	4	3

# Whole records from above. Order of screens: NPYLR7 agonist	NPYLR7 agonist max-min
# Listed for CC(=O)Nc1ccc(SCCCC(=O)N2CCN(c3cccc(Cl)c3)CC2)nn1 → -2	-3
# Listed for CCCCc1nc(Cn2c(=O)oc3cccnc32)no1 → -2	-2
# Listed for CC(Cc1cc2c(c(C(N)=O)c1)N(CCCO)CC2)NCCOc1ccccc1OCC(F)(F)F (stereo not drawn) → -3	-11
# Listed for CSc1nnc(-c2ccncc2)n1C → -15	-20

# The list continues:
Compound	NPYLR7 agonist	NPYLR7 agonist max-min
COc1ccc(Cn2ccc3nc4ccn(-c5ncn[nH]5)c(=O)c4cc3c2=O)cc1	-16	-21
O=C(NS(=O)(=O)N1CCCCC1)c1occc1-c1ccccc1	-22	-25
CC(NC(=O)C12CC3CC(C1)CC(n1cncn1)(C3)C2)C(=O)N(C)C (stereo not drawn)	2	-4
CCNC(=O)N1C[C@H]2[C@H](O)[C@@H]3C[C@H](C(=O)NC)[C@@H](O3)[C@H]2C1	3	13
COc1ccc2c(c1)CCN=C2Cc1ccc(OC)c(OC)c1	-1	-3
Cc1cccc(Cn2c(SCCC(C)C)nc3c2c(=O)[nH]c(=O)n3C)c1	0	-2
Cc1ccc(-c2csc(NC(=O)CN3C(=O)NC4(CCCCC4C)C3=O)n2)cc1 (stereo not drawn)	-1	-6
Cc1ccc(C)c(-n2nc(-c3ccccc3F)cc2C(=O)N2CCN(Cc3ccccc3)CC2)c1	-1	5
COc1ccccc1-c1c(C)[nH]n2c(=O)cc(-c3ccc([N+](=O)[O-])cc3)nc12	-19	-26
CNC(=O)[C@@H]1C[C@H](N)CN1C(=O)Cc1sc(C)nc1C	-3	-4
CCCc1c(C(=O)N2CCCC(C(=O)OCC)C2)cnn1-c1cccc(C)c1 (stereo not drawn)	12	11
CN(C)CCN(C(=O)c1cccs1)c1nc2c(F)cc(F)cc2s1	-5	-9
COCC(C)Nc1cncc(Br)c1 (stereo not drawn)	0	-5
CC(C)Oc1ccc(C(=O)Nc2c3c(nn2C(C)(C)C)CSC3)cc1	-3	-4
O=C(c1cc2n(n1)CCN(Cc1c(F)cccc1Cl)C2=O)N1CCC2(CC1)OCCO2	0	4
COc1ccc(C(=O)c2nc3c(n2O)CCCCC3)cc1	11	2

# Screening results as filed in PubChem.
